Ecoli rRNA inh: inhibits bacterial ribosomal RNA function over humanized ribosomes; hit rate 1.6% among 350,000; GFP signal change (wild-type ribosome), % (no concentration beside the values); E. coli WT GFP vs humanized-ribosome RFP mutants, fluorescence, 24 h; active compounds read low; DMSO median 0, no signal -100;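 active = significant combined selectivity score with lowered wild-type GFP, culture density cut under 30%, mutant RFP and density less affected; inactive = any of these conditions unmet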; note: one replicate is shown; some compounds called inactive have numbers as strong as hits
Ecoli rRNA inh OD600: also measured in Ecoli rRNA inh; calls as there; OD600 change, %; measured here: OD600 growth;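 optical density of the mix in the first replicate; 0 = DMSO median and -100 = no signal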
Ecoli rRNA inh RFP: recorded beside Ecoli rRNA inh, whose call it bears; RFP signal change, %; measured here: RFP humanized mutant strains;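 first replicate; 0 = DMSO median and -100 = no signal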
* marks the source's active call; other numbers are inactive results. An excerpt; the hit share may differ from the screen's.

SMILES | Ecoli rRNA inh | Ecoli rRNA inh OD600 | Ecoli rRNA inh RFP
C[C@@H]1CN([C@H](C)CO)C(=O)c2cc(NC(=O)Nc3ccc(F)cc3)ccc2O[C@@H](C)CCCCO[C@H]1CN(C)Cc1ccc2c(c1)OCO2 | -20.8 | -47.0 | 24.0
COc1ccc(NC(=O)Nc2ccc3c(c2)C(=O)N([C@H](C)CO)C[C@H](C)[C@H](CN(C)C(=O)NC(C)C)OCCCC[C@@H](C)O3)cc1 | -0.2 | 8.4 | -5.6
C[C@@H]1CN([C@@H](C)CO)C(=O)c2cccc(NC(=O)Nc3ccc(F)cc3)c2O[C@H]1CN(C)C(=O)Nc1ccc(F)cc1 | -1.1 | 2.1 | -2.9
CCCNC(=O)N1CC2(C1)[C@@H](c1ccccc1)[C@@H](CO)N2CC1CC1 | 2.1 | 12.9 | -2.9
CCC(=O)N1CC2(C1)[C@@H](c1ccccc1)[C@@H](CO)N2CC1CCCC1 | -4.1 | -1.0 | 1.8
COc1cc(NC(C)=O)c2ncccc2c1Br | -1.6 | -7.9 | -3.4
COc1ccc(C(O)c2nc(-c3cccs3)cs2)cc1 (stereo unspecified) | 7.0 | 1.1 | -5.7
O=C(C[C@H]1CC[C@H]2[C@@H](COC[C@@H](O)CN2CC2CCOCC2)O1)NCc1ccc(Cl)cc1 | 0.3 | -8.5 | -2.9
COc1ccc(Cl)cc1CNC[C@H]1O[C@@H](n2ccc(N)nc2=O)[C@H](O)[C@@H]1O | 7.9 | 11.8 | -0.4
C[C@@H]1CCCCO[C@H](CN(C)Cc2ccc3c(c2)OCO3)[C@@H](C)CN([C@H](C)CO)C(=O)c2cc(NC(=O)Nc3cccc4ccccc34)ccc2O1 | -2.9 | 4.5 | 2.1
CC1(C(=O)NCc2cccnc2)Cc2c(-c3cccc(C(F)(F)F)c3)ccnc2O1 (stereo unspecified) | -17.1 | -59.5 | -11.6
CC(=O)Nc1cccc(-c2cc(NC=O)c3ncc(-c4cccc(C(C)=O)c4)n3c2)c1 | 9.1 | 9.3 | -0.7
C[C@H](CO)N1C[C@H](C)[C@@H](CN(C)Cc2ccccc2)Oc2cc(C#CC(C)(C)O)ccc2S1(=O)=O | -7.3 | -34.2 | 18.7
COCC(=O)N1[C@H](CO)[C@H](c2ccccc2)C12CN(C(=O)Cc1ccccn1)C2 | 11.4 | 8.9 | -0.4
O=S(=O)(N[C@H]1CC[C@H](CCn2cc(-c3ccccn3)nn2)O[C@@H]1CO)c1cccc(Cl)c1 | -2.6 | -1.4 | -0.8
O=C(NCC[C@H]1CC[C@@H](NC(=O)c2cccnc2)[C@H](CO)O1)Nc1ccc(F)cc1 | -0.1 | -4.0 | -0.2
C[C@H]1CN([C@@H](C)CO)C(=O)c2cc(C#Cc3ccccn3)cnc2O[C@H]1CN(C)C(=O)c1cnccn1 | 1.4 | 2.6 | -3.4
CCC(=O)N(C)C[C@@H]1Oc2cc(C#CC3(O)CCCC3)ccc2S(=O)(=O)N([C@H](C)CO)C[C@H]1C | 2.7 | 10.2 | -1.4
Cc1ccccc1-c1ccc2c(c1)O[C@@H](CN(C)C(=O)Nc1ccc(C(F)(F)F)cc1)[C@@H](C)CN([C@@H](C)CO)S2(=O)=O | -0.4 | -1.8 | -4.2
COc1ccc(S(=O)(=O)N(C)C[C@@H]2Oc3ccc(NC(=O)NC(C)C)cc3CC(=O)N([C@H](C)CO)C[C@@H]2C)cc1 | -0.9 | -4.0 | -1.7
CO[C@H]1CN(C)C(=O)c2cc(NC(=O)C3CCCC3)ccc2OC[C@@H](C)N(CCC(F)(F)F)C[C@H]1C | -1.8 | -3.9 | 3.8
O=C(C[C@H]1CC[C@H]2[C@@H](COC[C@H](O)CN2S(=O)(=O)c2ccc(Cl)cc2)O1)N[C@@H]1CCN(Cc2ccccc2)C1 | -2.1 | -1.1 | -0.4
CC1C(=O)N(Cc2cn(CCC3OCCO3)nn2)CCS(=O)(=O)N1Cc1ccc(-c2ccc(F)cc2)cc1 (stereo unspecified) | -3.0 | -7.5 | -3.3
COc1ccc(NC(=O)N(C)C[C@@H]2Oc3c(NC(=O)Nc4cccc5ccccc45)cccc3C(=O)N([C@@H](C)CO)C[C@H]2C)cc1 | -3.0 | -1.6 | 1.5
OCCN1CCN(c2cnc(-c3ccsc3)cn2)CC1 | 8.8 | 12.4 | 2.4
Cc1ccc(S(=O)(=O)Nc2cccc3c2O[C@@H](CN(C)C(=O)Nc2ccccc2)[C@H](C)CN([C@H](C)CO)C3=O)cc1 | -3.6 | 3.3 | 1.5
COCC(=O)Nc1ccc2c(c1)C(=O)N(C)[C@@H]1CC[C@H](CC(=O)N3CCc4ccccc4C3)O[C@@H]1CO2 | 0.6 | 7.4 | -0.9
CCCN1[C@@H]2Cn3c(ccc(-c4ccncc4)c3=O)[C@H]1[C@@H](C(=O)NCC1CC1)[C@@H]2CO | -1.4 | -3.0 | -1.4
CC(C)NC(=O)NCC[C@@H]1CC[C@H](NS(=O)(=O)c2ccc(-c3ccccc3)cc2)[C@H](CO)O1 | -8.2 | -8.6 | -1.1
O=C(C[C@@H]1CC[C@@H]2[C@H](COC[C@H](O)CN2S(=O)(=O)c2ccccc2)O1)NCCN1CCCC1 | 4.5 | -6.1 | 0.1
OCC[C@@H]1C[C@H](O)[C@@H](O)[C@]2(OCc3cc(C(F)(F)F)ccc32)O1 | 2.3 | 7.7 | 4.6
O=C(N[C@@H](Cc1cccnc1)C(=O)N1CCC[C@H]1C(=O)NC1CCCC1)C1CCCC1 | 14.6 | 8.9 | 4.2
CN(C)c1ccc2c(c1)[C@@H]1C[C@H](CC(=O)N3CCc4ccccc4C3)O[C@@H](CO)[C@@H]1O2 | -3.0 | 3.4 | 2.7
COc1ccc(CN(C)C[C@@H]2Oc3ccc(NS(=O)(=O)c4ccc(OC)cc4)cc3CC(=O)N([C@H](C)CO)C[C@H]2C)cc1 | -3.2 | 4.9 | 0.6
C[C@@H]1CN([C@@H](C)CO)C(=O)c2cccc(NS(=O)(=O)c3ccc(F)cc3)c2O[C@H]1CN(C)C(=O)Nc1ccc(C(F)(F)F)cc1 | -1.5 | -1.6 | -2.9
COc1ccc(NC(=O)N(C)C[C@@H]2Oc3ccc(NC(=O)Nc4cccc5ccccc45)cc3CC(=O)N([C@H](C)CO)C[C@@H]2C)cc1 | -1.1 | -7.3 | -1.5
Cc1ccccc1CC1(C)C(=O)Nc2ccc(S(=O)(=O)NC3CCCCC3)cc21 (stereo unspecified) | -52.2 | -75.0 | -16.1
Cc1noc(C)c1-c1ccc(C(=O)NCc2cccnc2)c2occc12 | 0.9 | 11.1 | 0.1
C[C@H](CO)N1C[C@H](C)[C@H](CN(C)Cc2ccc(C(=O)Nc3ccccc3N)cc2)Oc2ccc(N(C)C)cc2CC1=O | -3.3 | -6.0 | 0.6
COc1cccc(C#Cc2ccc3c(c2)O[C@H](CN(C)C)[C@H](C)CN([C@H](C)CO)S3(=O)=O)c1 | 5.4 | 2.0 | 16.5
Cc1cc(C)nc(NS(=O)(=O)c2ccc(NS(=O)(=O)c3ccc(F)c(F)c3)cc2)n1 | -1.6 | -12.0 | -3.4
CCCNC(=O)N1CC2(C1)CN(Cc1ccc(F)cc1)[C@@H](CO)c1[nH]c3cc(OC)ccc3c12 | -1.2 | 5.1 | -2.5
COC1OC2COC(c3ccccc3)OC2C(NC(C)=O)C1OC(C)=O (stereo unspecified) | 2.8 | 3.7 | 1.0
Clc1cc(Cl)cc(Nc2ccccc2CN(C/C=C/c2ccc3c(c2)OCO3)Cc2ccccc2)c1 | 0.7 | -0.6 | -5.5
COc1ccc2c3c(n(C)c2c1)[C@H](CO)N(C(=O)NC1CCCCC1)CC31CCN(C)CC1 | 7.4 | 11.2 | -1.3
CCCCN1CC(N2CCN(C(=O)c3ccco3)CC2)CS1(=O)=O (stereo unspecified) | 4.1 | 12.9 | -4.1
COc1ccc(OC)c(NC(=O)c2cc(-c3ccc(F)cc3OC(C)C)n[nH]2)c1 | -7.9 | 7.1 | -3.3
O=C(NCC[C@@H]1CC[C@H](NC(=O)C2CCCC2)[C@@H](CO)O1)Nc1ccc(Cl)cc1 | -23.1 | -39.0 | 6.2
C[C@@H](O)C#Cc1cnc2c(c1)C(=O)N([C@@H](C)CO)C[C@H](C)[C@H](CN(C)Cc1ccc(-c3ccccc3)cc1)O2 | 1.3 | -7.8 | 3.3
CO[C@H]1CN(C)C(=O)c2ccc(NS(=O)(=O)c3ccc(C)cc3)cc2OC[C@H](C)NC[C@H]1C | 1.1 | 4.5 | -1.1
C[C@H](CO)N1C[C@H](C)[C@H](CN(C)C(=O)NC2CCCCC2)Oc2ccc(NC(=O)CCN3CCOCC3)cc2C1=O | 8.2 | 9.5 | -3.5
COc1ccc(NC(=O)N(C)C[C@H]2Oc3ccc(NC(=O)Nc4ccccc4)cc3CC(=O)N([C@@H](C)CO)C[C@@H]2C)cc1 | 2.7 | 3.5 | 1.4
CCCC(=O)Nc1ccc2c(c1)OC[C@@H](C)N(C(=O)CN(C)C)C[C@@H](C)[C@H](OC)CN(C)C2=O | -0.8 | -0.1 | -0.1
O=C(CN1CCOCC1)N1CCCCN2[C@H](CO)[C@H](c3ccc(-c4ccccc4F)cc3)[C@@H]2C1 | -0.5 | 5.5 | 0.0
C[C@@H]1CN([C@H](C)CO)C(=O)CCCn2nncc2CO[C@H]1CN(C)C(=O)Nc1ccccc1F | -0.6 | -2.3 | -1.4
Cc1cc(Br)cn2c(Cc3cccc(F)c3)c(C3CCCCC3)nc12 | 2.6 | 8.8 | 3.0
O=C(NCc1ccccc1)C1C(c2ccc3c(c2)OCO3)=Nc2ccccc2N1C(=O)c1ccco1 (stereo unspecified) | -3.9 | 1.8 | -3.7
COc1ccc(CNC(=O)C[C@H]2C[C@H]3c4cc(NC(=O)CN(C)C)ccc4O[C@H]3[C@H](CO)O2)cc1 | 1.7 | 7.8 | 2.0
C[C@H](CO)N1C[C@H](C)[C@H](CN(C)Cc2ccc3c(c2)OCO3)OCc2cn(nn2)CCCC1=O | 0.2 | 6.1 | -2.0
CO[C@@H]1CN(C)C(=O)c2ccc(NS(=O)(=O)c3ccc(Cl)cc3)cc2OC[C@H](C)N(C(=O)NC(C)C)C[C@@H]1C | -3.7 | -8.3 | 3.2
The list continues:
SMILES | Ecoli rRNA inh | Ecoli rRNA inh OD600 | Ecoli rRNA inh RFP
O=C([C@@H]1[C@@H](CO)[C@@H]2Cn3c(ccc(-c4cccnc4)c3=O)[C@H]1N2Cc1cccnc1)N1CCOCC1 | -0.4 | -1.1 | -2.4
CC1(Cc2ccc3c(c2)OCO3)C(=O)Nc2c(Cl)ccc(Cl)c21 (stereo unspecified) | -57.9 | -76.9 | -16.8
O=C(C[C@@H]1C[C@H]2c3cc(NC(=O)C4CCC4)ccc3O[C@H]2[C@@H](CO)O1)NCc1ccccn1 | 3.2 | 11.6 | 0.4
COc1ccc(S(=O)(=O)Nc2ccc3c(c2)CC(=O)N([C@H](C)CO)C[C@@H](C)[C@@H](CN(C)C(=O)Nc2c(C)noc2C)O3)cc1 | 0.4 | 5.7 | -0.5
N#C[C@@H]1[C@H](c2ccccc2)[C@@H](CO)N1S(=O)(=O)c1ccc(F)cc1 | 1.6 | 6.5 | -3.2
O=C(C[C@@H]1CC[C@@H]2[C@H](COC[C@@H](O)CN2S(=O)(=O)c2cccc(Cl)c2)O1)N1CCCCC1 | 3.7 | 5.5 | 2.7
C[C@@H]1CCCCO[C@H](CN(C)C(=O)CCCN(C)C)[C@@H](C)CN([C@H](C)CO)C(=O)c2cc(NC(=O)Nc3ccc(F)cc3)ccc2O1 | 4.0 | 9.0 | 0.1
O=C(C[C@@H]1C[C@H]2c3cc(NC(=O)Nc4ccccc4)ccc3O[C@H]2[C@@H](CO)O1)NCc1cccnc1 | 0.3 | -4.0 | -4.0
CCOc1ccc(S(=O)(=O)NCCC(=O)NNC(=O)c2ccc(F)cc2)cc1 | 5.6 | 8.4 | -0.1
C[C@@H]1CCCCO[C@H](CN(C)Cc2ccc(Cl)c(Cl)c2)[C@@H](C)CN([C@@H](C)CO)C(=O)c2cc(NS(=O)(=O)c3ccc(Cl)cc3)ccc2O1 | -0.8 | 8.7 | 7.7
C[C@@H]1CN([C@H](C)CO)C(=O)c2cccc(NS(=O)(=O)c3ccc(Cl)cc3)c2O[C@@H]1CN(C)S(=O)(=O)c1cn(C)cn1 | -0.2 | -6.9 | -0.2
C[C@@H]1CN([C@H](C)CO)C(=O)c2cc(NC(=O)Cc3ccccc3)ccc2O[C@@H](C)CCCCO[C@@H]1CN(C)C(=O)C1CCCCC1 | -1.9 | -10.5 | 0.4
O=C(C[C@@H]1C[C@H]2c3cc(NS(=O)(=O)c4ccccc4)ccc3O[C@H]2[C@H](CO)O1)NC1CCCC1 | 0.4 | -3.8 | 1.4

Some of these compounds in order of the Ecoli rRNA inh value, largest number first:
Compound	Ecoli rRNA inh	Ecoli rRNA inh OD600	Ecoli rRNA inh RFP
CCOc1ccc(S(=O)(=O)NCCC(=O)NNC(=O)c2ccc(F)cc2)cc1	5.6	8.4	-0.1
O=C(C[C@@H]1C[C@H]2c3cc(NC(=O)C4CCC4)ccc3O[C@H]2[C@@H](CO)O1)NCc1ccccn1	3.2	11.6	0.4
N#C[C@@H]1[C@H](c2ccccc2)[C@@H](CO)N1S(=O)(=O)c1ccc(F)cc1	1.6	6.5	-3.2
O=C(C[C@@H]1C[C@H]2c3cc(NS(=O)(=O)c4ccccc4)ccc3O[C@H]2[C@H](CO)O1)NC1CCCC1	0.4	-3.8	1.4
C[C@@H]1CN([C@H](C)CO)C(=O)c2cccc(NS(=O)(=O)c3ccc(Cl)cc3)c2O[C@@H]1CN(C)S(=O)(=O)c1cn(C)cn1	-0.2	-6.9	-0.2
C[C@@H]1CN([C@H](C)CO)C(=O)c2cc(NC(=O)Cc3ccccc3)ccc2O[C@@H](C)CCCCO[C@@H]1CN(C)C(=O)C1CCCCC1	-1.9	-10.5	0.4
